# AID504770: growth inhibition of E. coli YBA685, primary screen, V. cholerae RctB inhibitors; AID 504770, 2011; E. coli YBA685 rctB-dependent plasmid, OD600 growth, 3 h; stronger effect = lower value; z-score (test concentration not listed); 130,000 tested, 0.27% active;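 active = z-score under -2 on both plates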;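 note: wells of about 30 µL received 100 nL stock; score is relative to mean and SD of the test wells; the first replicate is given; strong numbers were not always called active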
# Ba CapD inh: Bacillus anthracis CapD inhibitors, primary screen, biochemical, fluorescence intensity. CapD gamma-glutamyltranspeptidase (Bacillus anthracis Ames Ancestor). purified CapD enzyme, fluorescence intensity read-out; stronger effect = lower value; some hits fall short of the stated cut. 140,000 tested, 0.23% active. z-score (test concentration not listed);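 active = z-score under -4 in either of two replicates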;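 note: stock transfer was 100 nL into about 40 µL; score is relative to mean and spread of the plate; one replicate is shown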
# Active calls of the source: *; . = not tested or not shown; & = joins results of further samples. An excerpt. The share of hits here may be higher or lower than overall.
Structure | AID504770 | Ba CapD inh
Cn1c(=O)cc2c3c(c(Nc4ccccc4)ccc31)C(=O)c1ccccc1-2 | . | -0.19
CC(C)OC(=O)Nc1ccc2c(c1)N(C(=O)CCN1CCN(CCO)CC1)c1ccccc1CC2 | . | -0.38
CC1=C/C(=N\Nc2ncc(Cl)cc2Cl)CC(C)(C)C1 | -0.45 | .
CCN(CC)C(=O)CN1C(=O)C2(Nc3ccccc3C(=O)N2c2cccc(C(F)(F)F)c2)c2ccccc21 (centres undefined) | . | 0.45
CCOC(=O)c1c(C)cc(C)[nH]c1=S | -0.75 | -4.8*
O=C1CSC(c2cc3c(cc2[N+](=O)[O-])OCO3)N1c1ccc(Cl)c(Cl)c1 (centres undefined) | . | 0.67
CCCC[n+]1c(C)csc1Nc1ccccc1 | -0.65 | -1.3
COc1ccc(CNC(=O)c2noc(C)c2CN2CCOCC2)cc1 | -0.15 | -1.6
NC(=O)c1csc(-c2cccnc2)n1 | -0.25 | -0.34
Cc1cccc(C)c1NC(=O)CCN1CCCC1 | -0.4 | 0.095
Cc1ccc(-c2cnc3ccccc3n2)cc1C | . | 9.4
CN(C)C(=O)c1cc2cccnc2nc1C(F)(F)F | . | -0.12
COC(=O)C1=C(C)OC(N)=C(C#N)C1c1ccc(F)cc1F (centres undefined) | . | 1.2
Cc1nc2c3ccccc3n3c(CCCC(=O)NC4CC4)nnc3n2n1 | -1.3 | -0.24
COc1ccc(NC(=O)CSc2c[nH]c3ccccc23)cc1 | -0.05 | 0.18
CS(=O)(=O)c1nc2ccccc2[nH]1 | -0.75 | 0.005
CNc1c(NC(=O)c2cccc(F)c2)c(=O)oc2ccccc12 | -1 | -0.91
CCCCN(C(=O)c1cc(OC)c(OC)c(OC)c1)C1=CC2CCC(C1)N2C (centres undefined) | 1.6 | .
CCOC(=O)/C=C1\SCC(=O)N1CC(=O)NC1CCCc2ccccc21 (centres undefined) | -0.9 | .
COc1ccc(Cl)cc1NC(=O)c1oc2ccc(S(=O)(=O)N3CCC4(CC3)OCCO4)cc2c1C | 2.1 | 3.3
CCN(CC)S(=O)(=O)c1ccc(C(=O)Nc2nc3ccc4nc(SC)sc4c3s2)cc1 | . | -0.1
O=C(CC1c2ccccc2Oc2ccccc21)NCc1ccco1 | 0.1 | 0.085
CCOC(=O)C1=C(C)NC(C)=C(C(=O)OCC)C1C(=O)OCC(=O)N1CCc2ccccc2C1 | -0.25 | .
COc1cc(C(=O)Nc2c3c(nn2-c2ccc(F)cc2)CS(=O)(=O)C3)cc(OC)c1OC | -3.1* | -0.98
O=C(O)c1cc(C(F)(F)F)ccc1Cl | . | 0.33

# A second format for some results above.
# Under each structure: AID504770	Ba CapD inh
- CC(C)OC(=O)Nc1ccc2c(c1)N(C(=O)CCN1CCN(CCO)CC1)c1ccccc1CC2
    .	-0.38
- CC1=C/C(=N\Nc2ncc(Cl)cc2Cl)CC(C)(C)C1
    -0.45	.
- CCN(CC)C(=O)CN1C(=O)C2(Nc3ccccc3C(=O)N2c2cccc(C(F)(F)F)c2)c2ccccc21 (centres undefined)
    .	0.45

# Full records, quoted from the list.
# Profile of `NC(=O)c1csc(-c2cccnc2)n1` : AID504770 = -0.25; Ba CapD inh = -0.34
# Profile of `CCN(CC)C(=O)CN1C(=O)C2(Nc3ccccc3C(=O)N2c2cccc(C(F)(F)F)c2)c2ccccc21` (centres undefined) : AID504770 = .; Ba CapD inh = 0.45

# Further records follow:
Structure | AID504770 | Ba CapD inh
CSc1ccc(C2Oc3ccccc3C3=C2C(c2ccc(C)cc2)n2ncnc2N3)cc1 (centres undefined) | . | -0.21
COC(=O)C1=C(C)N(CC2CCCO2)C(=O)/C1=C\c1ccccc1 (centres undefined) | -0.5 | -0.69
COc1cc2c(cc1OC)C(NN)=NC(C)(C)C2 | -1.1 | -0.45
Clc1cccc2sc(N3CCCC3)nc12 | -0.8 | 0.59
O=C(O)COc1ccccc1/C=C1/C(=O)Nc2cc(Cl)ccc21 | -0.05 | .
CC(=O)N1c2c(ccc(C)c2C)C(C)CC12CCCCC2 (centres undefined) | . | -0.35
Cn1c(CSc2nc3ccccc3s2)nnc1SCC(=O)NCCCN1CCOCC1 | -0.35 | .
CC1CN(Cc2ccccc2Cl)CC(C)O1 (centres undefined) | 1.7 | -0.57
COc1ccccc1Nc1ncnc2c1cnn2-c1ccccc1 | -0.3 | -0.025
C=CCC1C=CCC(CC=C)N1C(C)=O (centres undefined) | -0.3 | .
Cc1ccc(/C=C(/NC(=O)c2ccccc2)C(=O)NCCc2c[nH]c3ccccc23)o1 | . | -0.75
CCOC(=O)C1=C(C)N=c2s/c(=C3\C(=O)N(C(C)=O)c4ccccc43)c(=O)n2C1c1ccc(OC(C)=O)cc1 (centres undefined) | . | 0.11
Cc1nn(Cc2ccc(F)cc2)c2sc(C(=O)Nc3ccc(S(=O)(=O)N4CCCC4)cc3)cc12 | -1 | .
Cc1nc2ccc(S(=O)(=O)CCC(=O)NCc3cccs3)cc2s1 | -0.8 | -0.23
COc1cc(C2C(N3C(=O)c4ccccc4C3=O)C(=O)N2c2ccc(Cl)cc2)cc(OC)c1OC (centres undefined) | . | -0.45
O=C(CCS(=O)(=O)c1cc(Br)cc2c1N(C(=O)C1CC1)CC2)Nc1cc(F)ccc1F | 0.55 | 0.12
O=C1c2ccccc2S(=O)(=O)N1CCS(=O)(=O)c1ccc(F)cc1 | -0.25 | -1.3
COc1cccc(C(CC(=O)Nc2sc3c(c2C#N)CCCC3)NC(=O)c2ccccc2)c1 (centres undefined) | 2.4 | 2
CCC(=O)Nc1cc(C(C)C)c(O)cc1C | 2.1 | -0.31
O=C(Cn1[nH]c(=O)c2ccccc2c1=O)OCC(=O)N1CCCc2ccccc21 | 0.5 | .
c1ccc(-c2nccnn2)cc1 | 2.3 | -2
N#CC1(C#N)C2c3ccccc3C=CN2[C@@H](C(=O)C23CC4CC(CC(C4)C2)C3)[C@@H]1c1ccc(F)cc1 (some centres undefined) | . | 1.7
C=CCn1c(SCC(=O)Nc2nnc(CC)s2)nnc1-c1cccs1 | -1.9 | -0.13
CC1C(C(=O)Nc2ccccc2)CCCC1(C)C(=O)O (centres undefined) | -0.85 | .
COC(=O)c1ccc(CSc2nc3cc(Cl)ccc3n2Cc2ccccc2)o1 | 1.2 | .
CN(C(=O)CSc1nnc2n1CCCCC2)C1(C#N)CCCCC1 | -1.2 | .
Cc1ccc2cc(CN(Cc3cccnc3)C(=O)c3cccnc3)c(=O)[nH]c2c1 | 1 | .
CCCn1c(N)c(N2CCOCC2)c(=O)n(CC(=O)NCc2ccc(F)cc2)c1=O | 2.5 | .
O=C(Nn1c(C2CCCCC2)nc2ccccc2c1=O)c1cc([N+](=O)[O-])cc([N+](=O)[O-])c1Cl | . | -0.69
CN(C)N=Nc1nc[nH]c1C(N)=O | . | -0.29
COc1cc(C(=O)Nc2ccc3nc(NC(C)=O)sc3c2)cc(OC)c1OC | . | -0.15
COc1ccc(/C=N/OC(C)=O)c(OC)c1 | -0.95 | 0.5
O=C(N/C(=C/c1ccc(Br)cc1)C(=O)N1CCCC1=O)c1ccco1 | -0.3 | -1.4
O=C(NCCC1=CCCCC1)c1ccc(N2CC3CC(C2)c2cccc(=O)n2C3)c(NC(=O)c2c(F)cccc2F)c1 (centres undefined) | . | 0.18
O=C(CSc1n[nH]c(-c2ccccc2)n1)NCC1COc2ccccc2O1 (centres undefined) | -0.4 | .
O=C(CCc1ccccc1)Nc1ccc(-c2nc3ccccc3o2)cc1 | 1.7 | 42
COc1ccnc(-n2cccc2/C=N/OCc2ccc(Cl)cc2)c1C#N | . | -0.44
C=CCOc1ccccc1C1NC(=O)NC(C)=C1C(=O)NCc1ccccc1 (centres undefined) | -0.35 | -0.52
S=c1[nH]nc(-c2ccccc2)n1C1C=CCCC1 (centres undefined) | -1.1 | 0.54
COc1ccc2cc(C(=O)Nc3ccccc3)c(=Nc3ccc(C(=O)O)cc3)oc2c1 | . | 1.2
CCCn1c(N2CCN(C(=O)Nc3ccc(OC)cc3)CC2)nc2ccccc21 | 1.9 | .
O=[N+]([O-])c1c(Nc2ccc(Cl)cc2)cc(N2CCCCCC2)c2nonc12 | . | 0.82
Cc1ccc(N2C(=O)/C(=C/c3ccc([N+](=O)[O-])cc3)C=C2c2ccccc2)cc1C | . | -0.46
CC(Oc1ccc(S(=O)(=O)NCc2ccccn2)cc1)C(=O)NC1CCCCC1 (centres undefined) | 0.9 | .
Fc1cc(F)nc(NCc2ccccc2)n1 | -0.95 | .
Cc1ccc(C)n1-c1ncccc1O | -0.4 | -0.84
CC(C)Cn1c(SCC(=O)Nc2ccc3c(c2)OCO3)nc(O)cc1=O | -0.95 | .
O=C(O)CC12CC3CC(C1)CC(n1cncn1)(C3)C2 | -0.45 | .
O=C(O)CCC(=O)Nc1nc(-c2ccccc2)cs1 | -0.25&-0.75 | -0.21
CC(NCC(O)C(F)(F)F)c1ccccc1 (centres undefined) | 2.4 | 0.67

# Additional results.
Structure | AID504770 | Ba CapD inh
COC(=O)C(=CC(C)C)C(=O)OC | 0.2 | 0.13
COc1ccccc1-n1c(SC(C)C)nc2ccccc2c1=O | -0.6 | 0.45
Cc1ccc(NC(=O)CCc2cn(Cc3ccc(Cl)cc3)c3ccccc23)c(C)c1 | -0.1 | 0.76
COc1ccc(C(=O)Nc2n[nH]c(C(F)(F)F)n2)cc1 | -0.1 | 0.04
c1ccc(C2Nc3ccccc3C(c3ccccc3)(c3ccccc3)O2)cc1 (centres undefined) | . | -0.24
CC(C)c1ccc(NC(=O)c2ccc(NS(=O)(=O)c3cccs3)cc2)cc1 | -0.2 | 0.34
COc1cccc(C2NS(=O)(=O)N=C3CCCCCN32)c1OC(F)F (centres undefined) | -0.2 | .
Cc1cccc(C(=O)N2N=C(c3ccc(Br)cc3)CC2(O)C(F)(F)F)c1 (centres undefined) | . | -0.8
COC(=O)C1=C(NC(=O)c2cc3ccccc3oc2=O)CCS1 | -0.85 | -0.6
Cc1cc2nc(CN3CCCc4ccccc43)cc(=O)n2o1 | 0.05 | -0.74
Cn1c(CNC(=O)c2ccc(F)cc2)cc2ccccc21 | -0.95 | .
CCOc1ccc(-c2nc(C#N)c(NCCOC)o2)cc1 | -0.05 | 88
Cc1cc(/C=C/C(=O)N(C)Cc2ccco2)c(C)n1-c1ccnn1C(C)C | -0.35 | .
COc1ccc(CCNC(=O)c2cnn3c(C)c(Cc4ccccc4Cl)c(C)nc23)cc1OC | . | 7.6
S=c1cc(-c2ccccc2)n(Cc2ccco2)c2c1CCCC2 | -0.9 | .
COc1ccc(N2C(=O)NC(=O)/C(=C\c3cn(CC(=O)Nc4ccccc4)c4ccccc34)C2=O)cc1 | . | -0.29
COc1ccc(CCC(=O)Nc2ccc(-c3noc(CCc4ccccc4)n3)cc2)cc1 | 0.6 | -0.84
COC(=O)c1scc(Br)c1OC | . | -0.57
CCOc1ccc(C2NC(=O)NC(C)=C2C(=O)OCc2ccc3c(c2)OCO3)cc1 (centres undefined) | . | 0.23
O=C(c1ccco1)n1ccc(-c2cccs2)n1 | 0 | 3
CC(C)C(NC(=O)C1CCCCC1)C(=O)N1CCN(c2ccccn2)CC1 (centres undefined) | 0 | 0.27
COc1ccc(C(=O)CSc2nnc(Cc3cc(=O)[nH]c(=O)[nH]3)n2-c2cccc(OC)c2)cc1 | -1.6 | .
CC1CCN(S(=O)(=O)c2cccc(C(=O)NC(C)C)c2)CC1 | -0.95 | -0.34
N#CC1=C(N)C(C#N)(C#N)C(c2ccc(Cl)c(Cl)c2)C2CCCC=C12 (centres undefined) | . | 0.86
CN(C)c1ccc(C(CNC(=O)c2ccccc2)N2CCCC2)cc1 (centres undefined) | 0.35 | -0.78

# Another view of two compounds above:
# Screens in order: AID504770, Ba CapD inh
COC(=O)C1=C(NC(=O)c2cc3ccccc3oc2=O)CCS1
  -0.85, -0.6
Cc1cc2nc(CN3CCCc4ccccc43)cc(=O)n2o1
  0.05, -0.74

# Following part.
mol	AID504770	Ba CapD inh
CC1(C)CC(=O)c2c(oc3c(Br)cc(NS(=O)(=O)c4ccccc4)cc23)C1	.	0.24
COC(=O)Nc1ccc2c(c1)N(C(=O)CCN1CCCCC1)c1ccccc1CC2	.	9.9
COC(=O)Oc1ccc2c(C)cc(=O)oc2c1	-1.1	52
CC1=CCC2C(=O)N(c3ccc(C(=O)OCC(=O)c4ccc(Cl)cc4)cc3)C(=O)C2C1 (centres undefined)	.	0.45
Cc1sc2c(c1C)c(=O)n(-c1ccccc1)c1nnc(C)n21	.	-0.11
Cc1ccc(NC(=O)Cn2cnc3sc(C(=O)N4CCN(c5ccccc5F)CC4)c(C)c3c2=O)cc1Cl	.	-0.17
O=C(O)CCCc1ccc2ccc3cccc4ccc1c2c34	-0.6	-0.45
c1ccc(CN(Cc2ccccc2)c2c3c(nc4ncnn24)CCC3)cc1	-0.8	-0.81
O=C(Cn1c(=O)cnc2ccccc21)NC1CCCCC1	1.3	.
O=c1c2ccccc2nc2ccc(N3CCOCC3)nn12	-0.8	-1.1
COc1cc(C2C(C(=O)N3CCOCC3)=C(C)NC3=C2C(=O)CC(C)(C)C3)cc(Br)c1O (centres undefined)	.	14
FC(F)(F)c1cccc(-c2nc3ccccc3[nH]2)c1	-1.1	0.64
COCCOc1ccc(C(F)(F)F)cc1NC(=O)c1ccno1	1.4	.
COc1ccc(C2C(C(=O)N(C)C)=C(C)Nc3nc4ccccc4n32)cc1OC (centres undefined)	0.05	0.97
Oc1c(Cl)cc(Cl)c2cccnc12	-1.2	9

# As entered above.
# COC(=O)Oc1ccc2c(C)cc(=O)oc2c1 in AID504770 has -1.1
# COc1ccc(C2C(C(=O)N(C)C)=C(C)Nc3nc4ccccc4n32)cc1OC (centres undefined) in AID504770 has 0.05

# Source: PubChem
